# MT1-MMP act inh – blocks activation of human MT1-MMP; 360,000 compounds, 0.061% hits; AID 651647; P50281; HT1080 RFP-PRO-GFP cells, GFP/RFP ratio fluorescence, overnight; percent of plate control window, DMSO zero; GFP/RFP ratio change, % at 20 µM;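 active means GFP/RFP ratio change of at least 30% with cell ATP level not reduced by more than half and red fluorescence within 50% of control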; further: strong numbers were not always called active
#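 system = RFP-PRO-GFP reporter HT1080 cells | dosing = 20 µM single dose, 1% DMSO | timing = overnight cell settling, then overnight compound exposure, 37 °C, 5% CO2 | read-out basis = GFP/RFP fluorescence ratio | controls = DMSO and RFP-L50D-GFP cell wells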
# CSC inhib – cancer stem cell inhibition. cancer stem cell-like cells viability, luminescence. inhibition, % at 7.5 µM. 300,000 compounds, 1.1% hits. AID 2717;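 active means mean at 75% or more and at least half the replicates too; inconclusive means mean and replicates disagree; tested in HMLE shEcad cells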;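 further: 0% = median of negative and 100% = median of positive control wells; the first replicate is given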
# Rce1 inh – inhibitors of yeast Ras-converting enzyme. Q03530. yeast membranes, quenched prenylated peptide cleavage fluorescence. calls only. 290,000 compounds, 0.27% hits. AID 2563;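 active means fall in fluorescence gain of 50% or more versus controls, with final raw signal at or below 3038400; inconclusive means same 50% fall but final raw signal above 3038400; inactive means fall in fluorescence gain under 50%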;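 further: plate controls were neutral control wells for no effect and wells lacking membranes for full effect; tested at 10 µM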
# Target sequence (Q03530 whole entry, looked up): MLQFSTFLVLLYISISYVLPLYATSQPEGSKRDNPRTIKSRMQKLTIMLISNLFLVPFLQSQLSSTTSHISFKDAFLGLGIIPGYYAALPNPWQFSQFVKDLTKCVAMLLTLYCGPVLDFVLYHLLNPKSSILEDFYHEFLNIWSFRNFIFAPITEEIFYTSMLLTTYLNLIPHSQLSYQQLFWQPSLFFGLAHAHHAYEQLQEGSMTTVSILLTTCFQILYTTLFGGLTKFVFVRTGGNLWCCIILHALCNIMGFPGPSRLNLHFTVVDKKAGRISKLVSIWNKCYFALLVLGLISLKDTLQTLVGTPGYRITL
# Yeast UUG start – alters start codon recognition fidelity in yeast; S. cerevisiae UUG-firefly luciferase reporter, luminescence/redox ratio; activity score, % at 18.7 µM; 350,000 compounds, 0.13% hits; AID 602363;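 active means replicate mean at a twofold rise or more, about +100% in these data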;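 further: firefly luciferase made from a UUG start codon reports start codon fidelity; reporter light over untreated wells divided by growth signal over untreated wells; some hits fall short of that in this replicate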
# eIF4H FP inh – inhibitors of RNA binding by human eIF4H. AID 2012. eIF4H fluorescence polarization binding assay. inhibition, % at 35 µM. 290,000 compounds, 0.94% hits;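 active means 50% or more with normal probe brightness, or confirmed in later tests; inconclusive means above 50% with abnormal brightness, or retests that disagree; inactive means below 50% or failed in later tests; about a fifth of its hits are not listed in these tables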;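 further: calls also rest on retests at 20 µM and on dose response follow-up; 0% = protein and probe with vehicle and 100% = probe without protein; strong numbers were not always called active; many hits fall short of the cut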
# HIV Env fusion – blocks HIV Env-driven cell-cell fusion. 360,000 compounds, 1.1% hits. AID 651610. inhibition, % at 12.3 µM. HeLa-JRFL Env/CEM21 cell fusion, luciferase;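 active means mean replicate inhibition score of at least 50 and every replicate individually at or above 50; inconclusive means only one of the two criteria met; inactive means mean below 50 and not all replicates reaching 50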;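 further: 0% = plate neutral controls and 100% = maraviroc near 300 nM; one replicate is shown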
# PABP polyA inh – blocks human PABP binding to poly(A) RNA | fluorescence polarization | inhibition, % at 35 µM | 290,000 compounds, 1% hits | AID 2014;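 active means 50% or more with normal probe brightness, or confirmed in later tests; inconclusive means above 50% with abnormal brightness, or retests that disagree; inactive means below 50% or failed in later tests; about a fifth of its hits are not listed in these tables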;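 further: calls also rest on retests at 20 µM and on dose response follow-up; controls were probe without protein and protein plus probe with vehicle; some compounds called inactive have numbers as strong as hits; many hits fall short of the cut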
# Target sequence (P11940 whole entry, looked up): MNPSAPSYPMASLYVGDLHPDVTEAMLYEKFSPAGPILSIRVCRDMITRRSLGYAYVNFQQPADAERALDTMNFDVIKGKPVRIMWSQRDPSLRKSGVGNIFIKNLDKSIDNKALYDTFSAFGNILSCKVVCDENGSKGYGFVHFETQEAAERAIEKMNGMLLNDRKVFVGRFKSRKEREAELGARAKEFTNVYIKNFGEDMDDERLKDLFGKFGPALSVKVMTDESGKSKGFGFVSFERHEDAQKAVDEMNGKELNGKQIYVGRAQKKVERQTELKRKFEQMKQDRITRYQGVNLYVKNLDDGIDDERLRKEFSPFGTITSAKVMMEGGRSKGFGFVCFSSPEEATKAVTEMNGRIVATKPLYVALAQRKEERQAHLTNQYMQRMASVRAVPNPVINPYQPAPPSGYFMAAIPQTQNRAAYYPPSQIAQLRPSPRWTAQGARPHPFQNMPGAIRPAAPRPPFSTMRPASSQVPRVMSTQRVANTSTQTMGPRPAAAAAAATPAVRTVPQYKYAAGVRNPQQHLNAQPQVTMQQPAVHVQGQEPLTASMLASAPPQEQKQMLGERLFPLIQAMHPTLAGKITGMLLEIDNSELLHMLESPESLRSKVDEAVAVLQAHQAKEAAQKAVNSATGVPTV
# eIF4H FP inh retest – second read-out of eIF4H FP inh, no call of its own (marks repeat the call); inhibition, %; compound at 20 µM; confirmation average;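 mean of two retest wells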
# PABP polyA inh retest – further read-out of PABP polyA inh, marked with its call; inhibition, %; compound at 20 µM; confirmation repeats;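 mean of two retest wells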
# MT1-MMP act inh RFP – further read-out of MT1-MMP act inh, marked with its call; RFP signal change, %; measured here: RFP expression control read;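 0 = vehicle wells; hits needed this value within 50% of zero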
# Active calls of the source: *; i = inactive; ? = inconclusive; . = not tested or not shown; + = active, no number; & = joins results of further samples.
# Start of the data: the first 3 compounds (preview)
SMILES,MT1-MMP act inh,MT1-MMP act inh RFP,CSC inhib,Rce1 inh,Yeast UUG start,eIF4H FP inh,HIV Env fusion,PABP polyA inh,others
Cc1cnc(C(=O)OC(C)C(=O)c2c(C)[nH]c3ccccc23)cn1 (stereo unspecified),-1,-1,-6,i,-14,.,-8,.,
CSc1cccc(NC(=O)N2CCN(C)CC2)c1,2,5,-3,i,-17,-12,0,0,
CCOc1ccc(S(=O)(=O)Nc2cccc(C(=O)NCCCN3CCCC3=O)c2)cc1,-1,-14,-15,.,-3,.,.,.,

# The listing, from the first entry:
SMILES,MT1-MMP act inh,MT1-MMP act inh RFP,CSC inhib,Rce1 inh,Yeast UUG start,eIF4H FP inh,HIV Env fusion,PABP polyA inh,others
Cc1cnc(C(=O)OC(C)C(=O)c2c(C)[nH]c3ccccc23)cn1 (stereo unspecified),-1,-1,-6,i,-14,.,-8,.,
CSc1cccc(NC(=O)N2CCN(C)CC2)c1,2,5,-3,i,-17,-12,0,0,
CCOc1ccc(S(=O)(=O)Nc2cccc(C(=O)NCCCN3CCCC3=O)c2)cc1,-1,-14,-15,.,-3,.,.,.,
CCN(CC(=O)Nc1ccccc1C(F)(F)F)C(=O)CCSc1ccc(F)cc1,-2,-6,16,i,-13,.,19,.,
COc1ccc(Br)cc1CNC(=O)C1CCC(=O)N1C(C)C (stereo unspecified),4,4,-4,i,-7,.,7,.,
C/C(=N\NC(=O)C1CC1)c1ccc(C)c(C)c1,1,5,-14,i,-1,-7,8,2,
COc1ccc(-c2cc(C(F)(F)F)nc(NCc3ccco3)n2)cc1OC,6,-9,34,i,-13,-14,.,1,
COc1cc2ncc(S(=O)(=O)c3ccccc3)c(N3CCCC(C)C3)c2cc1OC (stereo unspecified),.,.,9,?,1,-3,.,9,
CCN(CC)C(=O)C(=O)c1cn(CC(=O)NCC2CCCO2)c2ccccc12 (stereo unspecified),-2,0,-11,i,.,0,0,-4,
CC1(C)CC2CC(C)(CN2C(=S)NC(=O)c2ccccc2Cl)C1 (stereo unspecified),3,3,-7,i,-16,-9,.,3,
C[C@H](CO)N1C[C@H](C)[C@@H](CN(C)S(=O)(=O)c2ccccc2)Oc2ccc(NC(=O)Nc3ccc(C(F)(F)F)cc3)cc2C1=O,-5,-15,102*,.,5,.,-9,.,
COc1cc(CN2CCN(Cc3ccc(C)cc3)CC2)c([N+](=O)[O-])cc1OC,1,-3,15,i,-3,6,16,0,
COCCCN1C(=O)c2ccc(C(=O)OCC(=O)N3CCN(c4ccccc4)CC3)cc2C1=O,0,-1,-9,i,.,.,5,.,
CCCC(=O)N1CCCC(c2cc(C(=O)Nc3ccc4c(c3)OCO4)no2)C1 (stereo unspecified),-2,2,.,.,-7,.,-15,.,
COC(=O)CN(C)C(=O)c1ccc(OC)c(OC2CCN(C(C)C)CC2)c1,0,3,16,i,-23,2,-14,-5,
COc1cc(OC)cc(C(=O)Nc2ccccc2N2CCOCC2)c1,0,0,.,i,-25,-2,-36,-14,
CCc1ccccc1N(CC(=O)NC(C)c1ccccc1)S(C)(=O)=O (stereo unspecified),0,1,2,i,-11,0,-1,-3,
O=C(Cn1nnc(N2CCCCC2)n1)c1ccc(Cl)c(Cl)c1,2,-3,-12,i,-10,-12,-4,0,
COc1cccc(CN2CCN(Cc3cc4ccccc4o3)CC2CCO)c1 (stereo unspecified),0,0,-2,i,-7,-5,-12,-6,
CCC(C)(C)n1nnnc1CN(Cc1ccc(Cl)cc1)Cc1ccco1,-4,-10,10,i,-4,-7,.,0,
COc1ccc(OC)c(NC(=O)COC(=O)c2cc3c(s2)CCC3)c1,3,6,.,i,.,?,-7,?,
O=C(OC(C(=O)NC1CCCC1)c1ccccn1)c1cccs1 (stereo unspecified),4,7,5,i,6,-6,-36,0,
COc1ccc(N2C(N)=C(C#N)C(c3ccsc3)C3=C2CCCC3=O)c(OC)c1 (stereo unspecified),-7,-6,6,i,9,8,3,8,
S=c1nc(-c2ccccc2)oc2c1CCCC2,-1,3,-4,i,11,-8,-474,-3,
c1ccc(-c2nnc3n2NC(c2ccc4c(c2)OCO4)S3)cc1 (stereo unspecified),0,0,-3,i,-33,8,-92,1,
CCN(CC)S(=O)(=O)c1cc(C(=O)NC2=NCCS2)ccc1Cl,0,-3,-2,i,-12,5,-112,-5,
Nc1nnc(SCC(=O)NNC(=O)c2ccccc2F)s1,1,1,.,.,-19,.,24,.,
O=C(c1ccsc1)N1CCCC(N2CCOCC2)C1 (stereo unspecified),.,.,-12,i,-3,-9,7,9,
O=C(c1ccccc1)C(c1ccccc1)c1ccccc1,1,-1,10,i,-17,.,-14,.,
COc1cc2c(cc1OC)[C@H](C)N(C(=O)CSc1nc(O)c(C(C)C)c(=O)[nH]1)CC2,-2,2,-8,i,-15,-2,.,1,
CC1(C)C2CCC1(C)C(OC(=O)CSc1nc(N)cc(=O)[nH]1)C2 (stereo unspecified),-4,-1,-10,i,13,-9,.,4,
O=C1CN(C(=O)COC(=O)c2ccccc2O)c2ccccc2N1,3,5,-1,i,-14,-6,-13,2,
N/C(=N\OC(=O)c1ccc(Cl)c(Cl)c1)c1cccnc1,5,4,2,i,-17,-2,.,-6,
CCCCC(CC)C(=O)NCCCN1CCN(CCCNC(=O)C(CC)CCCC)CC1 (stereo unspecified),-3,-5,24,i,-11,-1,.,-3,
CC1Cc2ccccc2N1C(=O)CSc1nnnn1C1CCCC1 (stereo unspecified),-3,-2,-11,i,-14,6,-85,2,
Cc1ccc(NC(=O)CNC(=O)c2ccc(C)s2)nc1,-3,2,0,i,-15,.,-5,.,
Cc1cc(C(=O)OCC(=O)Nc2ccccc2Cl)c(C)o1,-1,1,-18,.,1,.,.,.,
O=C(CCn1c(=O)[nH]c2ccsc2c1=O)Nc1ccc(F)c(F)c1,3,6,-7,i,-20,-10,-3,-4,
CCOC(=O)c1c(C)[nH]c(C2=NNC(=NC(C)COC)SC2)c1C (stereo unspecified),-1,1,-20,i,.,-1.8*,-23,50*,eIF4H FP inh retest=93*;PABP polyA inh retest=104*
C=CCc1cccc2cc(C(=O)Nc3ccc(F)cc3)c(=O)oc12,2,3,-7,i,-7,-3,0,-1,
COc1cc(C(F)(F)F)c(C(=O)N(C)Cc2ccc(Cl)c(Cl)c2)cn1,-2,-9,11,i,13,2,16,10,
COc1ccc(C(=O)NC2CCN(S(=O)(=O)c3ccccc3)CC2)cc1,-6,1,-7,.,44,6,4,4,
CCOC(=O)c1oc2ccccc2c1NC(=O)c1cccs1,3,3,2,i,0,-6,-1,-5,
CC(=O)N1CCc2cc(S(=O)(=O)Nc3ccccc3N3CCN(C)CC3)ccc21,-2,2,21,i,-14,-5,4,-6,
O=C(Nc1nc2ccccc2s1)c1ccc(Cl)s1,-9,-8,10,i,-16,-3,i,-1,
CCOc1cc(/C=N/NC(=O)c2nn(C)cc2Br)ccc1OCc1ccccc1Cl,0,-16,.,i,.,-7,.,-4,
COC(=O)c1ccc(CNC(=O)Cn2cnc3c(SC)nc(N)nc32)cc1,1,-10,.,.,-11,.,49,.,
CN1Cc2c(N3CCOCC3)nc3sc(C(=O)c4ccccc4)c(N)c3c2CC1(C)C,-2,-5,-3,i,.,-6,8,-13,
CCCc1ccc(C(O)c2ncc(-c3cccc(OC)c3)[nH]2)cc1 (stereo unspecified),3,-5,.,.,-17,.,?,.,
C[C@@H]1CN([C@@H](C)CO)C(=O)CCCn2cc(nn2)CO[C@H]1CN(C)S(=O)(=O)c1cccc(F)c1,4,4,.,.,-13&2,.,14,.,

# (cont.)
SMILES,MT1-MMP act inh,MT1-MMP act inh RFP,CSC inhib,Rce1 inh,Yeast UUG start,eIF4H FP inh,HIV Env fusion,PABP polyA inh,others
COc1cccc(CNC(=O)CN2C(=O)CC(c3ccccc3)=Nc3ccccc32)c1,1,-3,-15,i,-8,-2,2,0,
CC(CSc1nc2ccccc2s1)Cn1c(N2CCCC2)nc2c1c(=O)[nH]c(=O)n2C (stereo unspecified),5,-8,-12,i,9,-9,.,-8,
CCCCC(CC)CN1CN(CC(CC)CCCC)CC(C)(N)C1 (stereo unspecified),1,3,.,.,-3,.,4,.,
O=C(Cn1cccc1C(=O)c1ccccc1)NCc1ccccn1,-1,6,-2,i,-11,6,.,10,
O=C(CCn1c(=S)oc2ccccc21)Nc1ccc2c(c1)OCCO2,-3,0,-7,i,-2,-5,.,9,
Cc1ccc(CNC(=O)C2CCCN2S(=O)(=O)c2ccc(F)cc2)cc1 (stereo unspecified),-1,-1,4,i,-6,-1,3,9,
Cc1ccc(-c2csc(NC(=O)C3=NN(c4ccccc4)C(=O)CC3)n2)cc1,0,-16,17,i,.,-5,34,2,
COc1cc2c(cc1OC)C(C)N(C(=O)c1cc3c(=O)oc4ccc(C)cc4c3s1)CC2 (stereo unspecified),10,-3,-13,+,-9,-10,-2,2,
Cn1c(SCc2c(F)cccc2Cl)nnc1-c1cnccn1,-7,-4,-11,i,-6,-3,-212,-4,
CCOc1cccc(-c2cc(NCCc3ccccn3)n3nccc3n2)c1,5,6,.,.,-16,.,0,.,
CCOC(=O)c1c(NC(=O)COC(=O)c2nccnc2N)sc(C(=O)N(C)C)c1C,1,5,-16,i,-10,.,-6,.,
O=C(CCn1c(=O)oc2ccccc21)N(Cc1ccccc1)c1ccccn1,0,3,-14,i,-4,.,.,.,
CCOC(=O)c1c(NC(=O)C[n+]2ccccc2)sc2c1CCCC2,-3,-4,-5,i,.,-4,-5,2,
O=C(c1cc2nc(-c3ccccc3)cc(-c3ccccc3)n2n1)N1CCN(C(=O)c2ccco2)CC1,-1,-7,22,i,-1,-2,.,2,
Cc1ccc2nc(SCC(=O)Nc3ccc(Br)cc3)nc(=O)n2c1,-2,2,-1,i,-12,.,1,.,
Cc1ccccc1Cn1c(Cc2ccccc2)nc2ccccc21,-3,-3,31,i,-15,3,24,4,
CC12CCC(=O)N1C(C(=O)NCc1ccc(Cl)cc1Cl)CS2 (stereo unspecified),1,1,-5,i,.,.,.,.,
CCOc1cc(S(=O)(=O)N2CCCCCC2)ccc1F,-2,-1,3,i,6,-1,14,6,
Cn1c(CC(=O)NC(C)(C)CO)c(Sc2ccccc2)c2ccccc21,-15,-11,-8,i,11,5,-22,-2,
CC(=O)N1CCN(C(=S)Nc2cc(S(=O)(=O)N3CCOCC3)ccc2Cl)CC1,-1,0,-3,i,.,-2,23,6,
CCn1cc(C(=O)N[C@@H](CCSC)C(=O)NCCO)c(=O)c2cc3c(cc21)OCO3,0,5,-3,i,-11,1,-127,4,
COc1ccc(N2CC(C(=O)N3CCCC(C)C3)CC2=O)cc1 (stereo unspecified),0,3,-19,i,-5,-12,-2,-6,
Cc1c(Cl)cccc1NCC(=O)Nc1ccc(Cl)cc1F,6,4,18,i,-5,14,8,7,
CSc1nnc2c(n1)OC=Nc1ccccc1-2,9,6,-6,i,-3,-2,.,-3,
OCC(O)C(O)C(O)C(O)C1NCCS1 (stereo unspecified),-2,2,-14,i,-7,-7,.,-3,
CCO/C=N/c1c(C#N)c2c(c(=S)n1C)COC(C)(C)C2,3,2,-21,i,-15,1,.,9,
C=CCNC(=O)NC(=O)COC(=O)[C@H](C)NS(=O)(=O)c1c(C)c(C)cc(C)c1C,0,1,5,i,.,21,-16,-4,
Cn1c(=O)c2c(nc(CN3CCN(C(c4ccccc4)c4ccccc4)CC3)n2CC(N)=O)n(C)c1=O,-9,-3,-17,i,-8,-1,.,-8,
